Vaccinia mCherry = vaccinia inhibition (mCherry reporter); Vaccinia virus mCherry reporter infection, fluorescence; about a quarter of the inactives have no number; Potency, µM (highest dose often 36.5 µM), for inactives: at the top dose activity change, negative = inhibition, usual class: inhibitors; actives 0.63% (n = 310,000); active = well fitted inhibition curve with a large enough effect; inconclusive = small, poorly fitted or top-dose-only effect; inactive = no such curve, though single readings can be large or run the other way; tested in A549 cells; note: nearly all actives have a fitted effect of over 35% in size; inactives centre near -10
Vaccinia Venus = vaccinia inhibition (Venus reporter). Vaccinia virus Venus reporter expression, fluorescence. Potency, µM (top dose mostly 36.5 µM), without a hit: at the highest dose activity change, negative = inhibition, most hits filed as inhibitors. actives 0.46% (n = 330,000); active means well fitted inhibition curve with a large enough effect; inconclusive means small, poorly fitted or top-dose-only effect; inactive means no such curve, though single readings can be large or run the other way; tested in A549 cells; note: nearly all actives have a fitted effect of over 30% in size; inactives centre near -10
* hit, by the source's call; i = inactive; ? = inconclusive; / = not tested or not shown; & = joins results of further samples; [ ] = remark or other dose. % is set by controls: 0 for no effect and ±100 for the full control effect; potency is the fitted concentration of half-maximal effect.

The opening 2 records, to show the layout:
SMILES | Vaccinia mCherry | Vaccinia Venus
CCN(Cc1ccccc1)C(=O)C(CC(C)C)NS(=O)(=O)c1ccc2c(c1)CCN2C(C)=O (centres undefined) | 1% | -1%
COCCN1C[C@@H](CO)O[C@@H](n2cnc3c(N(C)C(C)C)ncnc32)C1 | -13% | -12%

All compounds of this part, previewed entries included:
SMILES | Vaccinia mCherry | Vaccinia Venus
CCN(Cc1ccccc1)C(=O)C(CC(C)C)NS(=O)(=O)c1ccc2c(c1)CCN2C(C)=O (centres undefined) | 1% | -1%
COCCN1C[C@@H](CO)O[C@@H](n2cnc3c(N(C)C(C)C)ncnc32)C1 | -13% | -12%
CCN(CC)S(=O)(=O)c1ccc2c(c1)nc(CCC(=O)Nc1ccc3c(c1)OCO3)n2C | -14% | -11%
Cc1ccc(S(=O)(=O)N2CCOC2CNC(=O)C(=O)NCCc2ccccc2)cc1 (centres undefined) | ? | -28%
CNS(=O)(=O)c1cccc(C(=O)Nc2cccnc2)c1 | / | -14%
CCOc1ccc(C(=O)Nc2ccc3c(c2)C(=O)NC3=O)cc1 | -10% | -13%
CC1=C(C(=O)N(C(C)C)C(C)C)CC(CC(=O)NC2CCCCC2)C(=O)N1Cc1ccc(C(C)(C)C)cc1 (centres undefined) | 3% | -20%
O=C1CCN(Cc2ccccc2)S(=O)(=O)c2ccc(C(F)(F)F)cc21 | -2%&-14% | -25%&-8%
Cc1nn(-c2ccccc2)c(/N=C/c2ccc(O)cc2)c1-c1ccccc1 | i | -12%
COc1ccc(CNCCS(=O)(=O)NCc2ccc(OC)cc2)cc1 | i | 4%
O=C(NCc1ccncc1)c1cccc(S(=O)(=O)Nc2ccc(SC(F)F)cc2)c1 | -8% | -7%
C=C1C(=O)[C@@]23[C@H](O)C[C@@H]4C(C)(C)CC[C@H](O)[C@@]4(C)[C@@H]2CC[C@@H]1[C@H]3O | ? | 2.5µM*
COc1cccc(/C=C/C(=O)OCC(=O)Nc2ccc3c(c2)OCCO3)c1 | -11% | -2%
O=C(Cn1cnc(Cl)c1Cl)c1ccccc1 | i | -2%
Cc1ccc(-c2noc(CNC(=O)COc3ccccc3C)n2)cc1 | ? | ?
O=C(NCC(c1ccc2c(c1)OCO2)N1CCN(c2ccccc2)CC1)C(=O)Nc1cccc(F)c1 (centres undefined) | -16% | -13%
COc1ccc(/C=N\NC(=O)CNC(=O)C(c2ccccc2)c2ccccc2)cc1[N+](=O)[O-] | -9% | -3%
N#Cc1cc(N)c(Nc2ccccc2)cc1C#N | ? | ?
CCC(CO)(C(=O)OC1C[N+]2(C)CCC1CC2)c1ccccc1 (centres undefined) | 1% | 6%
Cc1c(Cl)cccc1NC(=O)c1cc2nc(-c3ccc4c(c3)OCO4)cc(C(F)(F)F)n2n1 | -26%[7.34 µM] | -27%[7.34 µM]
CCOC(=O)C1=NOC(CNC(=O)c2c(-c3ccccc3Cl)noc2C)C1 (centres undefined) | / | 13%
CN(c1ccccc1)S(=O)(=O)c1ccc(C(=O)Nc2ncccc2O)cc1 | -30% | -28%
Cc1ccc(-c2cc(C(=O)N3CCCCCC3)no2)cc1 | i | -7%
COc1ccccc1Nc1nnc(SCc2cc(=O)n3cc(C)ccc3n2)s1 | i | -14%
O=C(OCc1ccccc1)N1CCN(C(c2ccnc3ccccc23)c2nnnn2-c2ccc3c(c2)OCCO3)CC1 (centres undefined) | -18% | -10%
O=C(CCCc1ccccc1)Nc1ccc(Br)cc1F | -6% | -11%
CCCN1Cc2cccc(C(=O)Nc3ccc(CN4CCCC4)cc3)c2C1=O | ? | -28%
CNC(=O)NC(=O)CSc1nc(-c2cccs2)c(C#N)c(=O)[nH]1 | -16% | -10%
Cc1ccc(C2c3sc(=O)[nH]c3SC3C(=O)NC(=O)C32)cc1 (centres undefined) | / | -7%
O=C(COc1ccc(Cl)cc1)NCC(c1ccco1)S(=O)(=O)c1ccc(Cl)cc1 (centres undefined) | -9% | -11%
COC(=O)c1ccc(OCC(O)CN2C(=O)NC(C)(C)C2=O)cc1 (centres undefined) | -23% | -11%
Cc1nc2ccc(N3C(=O)CCC3=O)cc2[nH]1 | / | -16%
COc1cc(CC(=O)OCC(=O)NC2CCCCC2)cc(OC)c1OC | i | -8%
CCOC(=O)NC(=O)CSc1nc2ccc(OCC)cc2[nH]1 | -15% | -5%
CCS(=O)(=O)N1CCc2cc(C(=O)Nc3ccc(OC)cc3OC)ccc21 | -7% | -20%
CCN(CC)CCNC(=O)c1ccc2c(=O)n3nc(Nc4ccccc4)sc3nc2c1 | -11% | -15%
COc1cccc(OC)c1/C(O)=C(\C#N)c1nc2ccccc2[nH]1 | -30% | ?
CC(=O)C1=C(O)C(=O)N(CCC(=O)O)C1c1ccccc1[N+](=O)[O-] (centres undefined) | -9% | -12%
COC(=O)C(=Cc1ccc(OCc2ccc([N+](=O)[O-])cc2)c(OC)c1)C(=O)OC | / | -16%
O=[N+]([O-])c1cc(-c2n[nH]c(-c3ccccc3)n2)cc([N+](=O)[O-])c1 | -20% | -12%

5 compounds picked at random from the list so far:
SMILES | Vaccinia mCherry | Vaccinia Venus
COC(=O)c1ccc(OCC(O)CN2C(=O)NC(C)(C)C2=O)cc1 (centres undefined) | -23% | -11%
COc1cc(CC(=O)OCC(=O)NC2CCCCC2)cc(OC)c1OC | i | -8%
CCOC(=O)NC(=O)CSc1nc2ccc(OCC)cc2[nH]1 | -15% | -5%
CN(c1ccccc1)S(=O)(=O)c1ccc(C(=O)Nc2ncccc2O)cc1 | -30% | -28%
Cc1nc2ccc(N3C(=O)CCC3=O)cc2[nH]1 | / | -16%

Further structures:
SMILES | Vaccinia mCherry | Vaccinia Venus
Cc1ccc(C)c(NC(=O)c2ccc3c(c2)CCCN3S(C)(=O)=O)c1 | -13% | -1%
O=C(Cn1nnc(-c2cccc(C(F)(F)F)c2)n1)NCc1ccc(F)cc1 | 10% | -2%
CCC(C)Sc1nc2c([nH]c3ccccc32)c(=O)n1C (centres undefined) | ? | -26%&-23%
Cc1cc(C)c2c(SC(C)C)nc(N)nc2n1 | -25% | ?
O=C(C1CCN(S(=O)(=O)c2ccc(Br)s2)CC1)N1CCN(c2cccc(C(F)(F)F)c2)CC1 | ? | -27%
Cc1c(C(=O)OCC(=O)Nc2c(C)n(C)n(-c3ccccc3)c2=O)oc2ccccc12 | i | 1%
CCc1ccc(NC(=S)N(CCN2CCOCC2)Cc2ccccc2F)cc1 | -12% | 1%
CCn1c(COc2ccccc2C)nnc1SCC(=O)NCc1ccccc1 | -28% | -17%
COc1ccccc1-c1sc2ccccc2c1-c1ccc(O)cc1 | i | -21%
Cn1c(SCC2CCCO2)nnc1C1CCN(Cc2ccccc2O)CC1 (centres undefined) | -7% | 0%
O=C(Nc1ccc(F)cc1)C1CCN(S(=O)(=O)c2cccs2)CC1 | -3% | -23%
COc1ccc(C(=O)NC(C)c2nc3ccccc3[nH]2)cc1OC (centres undefined) | -14% | -2%
O=C(CCn1ccc2cc(S(=O)(=O)N3CCCC3)ccc21)NCc1cccc(Br)c1 | -11% | -9%
COc1cc(OC)cc(C(=O)NCCCn2ccnc2)c1 | i | 4%
O=C(NC1=NCCS1)c1sc2ccccc2c1Cl | -5% | -12%
COCCN(CCOC)Cc1cc(=O)oc2cc(C)cc(C)c12 | 7% | -11%
Cc1noc(C)c1CSCC(=O)N1CCN(c2ccc(F)cc2)CC1 | ? | -25%
Cc1cc(C)cc(NC(=O)c2cn3c4c(ccc(Cl)c4c2=O)OC(C)C3)c1 (centres undefined) | -6% | -13%
C/C(CC(=O)NCc1ccco1)=N\NC(=O)Cc1ccccc1 | -10% | -6%
COC(=O)c1ccc(C(C2C(=O)CC(C)(C)CC2=O)C2C(=O)CC(C)(C)CC2=O)cc1 | i | -9%

A second format for part of the listing above.
Cc1cc(C)c2c(SC(C)C)nc(N)nc2n1
  Vaccinia mCherry: -25%; Vaccinia Venus: ?

COC(=O)c1ccc(C(C2C(=O)CC(C)(C)CC2=O)C2C(=O)CC(C)(C)CC2=O)cc1
  Vaccinia mCherry: i; Vaccinia Venus: -9%

CCN(CC)CCNC(=O)c1ccc2c(=O)n3nc(Nc4ccccc4)sc3nc2c1
  Vaccinia mCherry: -11%; Vaccinia Venus: -15%

CCCN1Cc2cccc(C(=O)Nc3ccc(CN4CCCC4)cc3)c2C1=O
  Vaccinia mCherry: ?; Vaccinia Venus: -28%

(list continues)
SMILES | Vaccinia mCherry | Vaccinia Venus
C=CCN(CC(=O)c1sc(C(=O)OCC)nc1C)c1cccc(Br)c1 | ? | -5%
CN1CCN(S(=O)(=O)c2cccc(C(=O)N(c3ccccn3)C3CCCCC3)c2)CC1 | / | -15%
NC(=O)CC(NC(=O)c1ccccc1)c1ccc(N2CCN(c3ccccc3)CC2)c([N+](=O)[O-])c1 (centres undefined) | ? | ?
CC(=O)OCC(=O)[C@@]1(O)CCC2C3CCC4=CC(=O)CC[C@]4(C)C3C(=O)C[C@]21C (some centres undefined) | -6% | -4%
Cc1ccc(S(=O)(=O)c2nnn3c2nc(NCCCN2CCCC2=O)c2ccccc23)cc1C | ? | ?
Cc1ccc(C)c2[nH]c(=O)c(CN(CCN3CCCC3)C(=O)Nc3ccc(F)cc3)cc12 | / | -16%
NC(=O)c1ccc(NC(=O)Cn2c(=O)n(-c3ccccc3)c(=O)c3oc4ccccc4c32)cc1 | 23% | 1%
CCOC1=C2CN(S(=O)(=O)c3ccc(C)cc3)[C@H](c3ccccc3)C[C@@H]2N(S(=O)(=O)c2ccc(C)cc2)[C@H](c2cccc(C)c2)C1 | 0% | -9%
Cc1oc(-c2ccc(Cl)cc2)nc1CN1C(=O)CN=C(c2ccccc2)c2cc(Cl)ccc21 | -15% | -11%
S=c1nc(SCc2ccccc2)[nH]c2ccccc12 | i | -4%
C1CCC(c2nn3c(-c4n[nH]c5c4CCC5)nnc3s2)CC1 | ? | ?
COc1ccc(OC(=O)Nc2ccccc2)cc1 | 0% | 5%
CCCNC(=O)c1ccc(N2CCC3(CC2)CC(c2cccc(Br)c2)=NO3)c([N+](=O)[O-])c1 | -14% | -23%
COc1ccc(NC2=NC(=S)N(c3ccc(C)cc3)C23CCCCC3)cc1 | -1% | -9%
COc1ccc(C(=O)Nc2nnc(S(=O)(=O)N3CCC(C)CC3)s2)cc1OC | -1% | 7%
CC(=O)c1cccc(NC(=O)Cn2nc(C(F)(F)F)c3c2CCC3)c1 | -7% | -8%
CCOC(=O)CSc1ccc(C(=O)N2CCN(C)CC2)cc1[N+](=O)[O-] | -3% | -9%
CC(C)Oc1ccc(C(=O)N2CCCC2C(=O)O)cc1 (centres undefined) | -15% | -7%
COc1ccc(-n2c(SCC(=O)Nc3ccccc3)nc3c(c2=O)SCC3)cc1 | i | -15%
Cc1nn(CCOc2cccc(Br)c2)c(C)c1[N+](=O)[O-] | -5% | -18%
C[C@@H]1NS(=O)(=O)[C@H]2C[C@@H]3C=C[C@]2(O3)[C@H]1OC(=O)c1ccccc1Br | -6%&-13% | -4%&-24%
O=C(Nc1ccc(C(=O)OCc2cc(=O)n3c4c(sc3n2)CCCC4)cc1)c1ccccc1 | -13% | -9%
Cc1ccc(-c2nn(-c3cccc(F)c3)cc2CNCCc2ccncc2)o1 | -30% | -1%
Cc1cc(C)nc(NS(=O)(=O)c2ccc(NC(=O)C3CC(=O)N(c4ccccc4)C3)cc2)n1 (centres undefined) | -13% | -4%
Cc1cc(S(=O)(=O)Nc2cccc(C(=O)O)c2)c(C)c(S(=O)(=O)c2ccccc2)c1 | -10% | -10%
Cc1cccc2c(C(=O)Nn3cnnc3)cc(-c3ccccc3Cl)nc12 | 3% | -8%
COc1ccc(S(=O)(=O)N2CCCOC2CNC(=O)C(=O)NCc2ccncc2)cc1 (centres undefined) | 0% | -8%
O=C(Nc1ccccc1SCC1CSc2nc3ccccc3c(=O)n21)c1ccccc1Cl (centres undefined) | / | 25%
CC(=O)Nc1ccc(S(=O)(=O)C(C#N)c2nc3ccccc3nc2NCCN2CCOCC2)cc1 (centres undefined) | -14% | -7%
Cc1cccc(NC(=O)c2sc3nc4c(cc3c2N)CN(C(C)C)CC4)c1 | -23% | -28%
CC(=O)Oc1ccc(N(C(C)=O)S(=O)(=O)c2cccs2)c2ccccc12 | -2% | 2%
O=c1c(S(=O)(=O)c2ccc(Cl)cc2)cn(Cc2ccc(F)cc2)c2ccc(F)cc12 | -4% | -10%
CC(=O)NC(=S)Nc1sc2c(c1C(N)=O)CCC(C)C2 (centres undefined) | -16% | -15%
C=C1CCC(OC(C)=O)C2(C)CCC3C(C)C(=O)OC3C12O (centres undefined) | i | -7%
CC(C)N1CCN(Cc2ccc3nsnc3c2)CC1CCO (centres undefined) | -29% | -4%
COc1ccc(CCN2C(=O)CCC3=C2CCC3=O)cc1OC | -4% | 1%
O=C(CN1CCC(NC(=O)C2CC2)CC1)Nc1ccccc1[N+](=O)[O-] | -10% | -5%
O=C(NCCN1C(=O)S/C(=C\c2ccc(Cl)cc2)C1=O)c1ccc(F)c(S(=O)(=O)N2CCOCC2)c1 | -10% | -5%
COc1ccc(NC(=O)CSc2nc3c(c(=O)n2-c2ccc(C)cc2)SCC3)c(OC)c1 | -8% | -8%
O=c1c2c3c(sc2nc(NCCO)n1Cc1ccco1)CCCCC3 | i | -17%
O=C(O)[C@@H](O)[C@@H](O)[C@H](O)[C@H](O)CO | -8% | -12%
NS(=O)(=O)c1ccc(NC(=O)CSc2nnc(-c3cnccn3)n2-c2ccccc2)cc1 | / | 5%
COc1ccc(N2CC(C(=O)Nc3ccc([N+](=O)[O-])cc3Br)CC2=O)cc1 (centres undefined) | i | -21%
CCc1ccc(NCc2cc3cc4c(cc3n(CC(=O)Nc3ccccc3Cl)c2=O)OCO4)cc1 | 1% | 6%

Compounds were not picked by outcome; about 0.87% have a hit in one of these screens.
